miR-21 reporter: miR-21 reporter, rising signal; Potency, µM (series often up to 38.3 µM), for inactives: at the top dose reporter change, positive = more light; HeLa miR-21 FLuc reporter, luciferase, 48 h; AID 2288; 340,000 tested, under 10 active; active = well fitted rising curve with a large enough effect; inconclusive = small, poorly fitted or top-dose-only effect; inactive = no such curve, though single readings can be large or run the other way;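 also: % of control where 0% means no effect; miR-21 action dims this reporter so a rising signal means less miR-21 action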
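Compounds were titrated across several concentrations (up to approximately 40 uM) and incubated 48 hours with HeLa miR-21-FLuc reporter cells (miR-21 target sequence downstream of FLuc, endogenous miR-21). Readout was firefly luciferase luminescence after lytic detection reagent.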
Rango dissoc inh: inhibitors of RanGTP-induced Rango-importin beta complex dissociation; O95149+P62826; Biochemical FRET Rango-importin beta, RanGTP-induced dissociation; Potency, µM (highest dose often 46.1 µM), without a hit: at the highest dose activity change, negative = inhibition; hit rate 0.071% among 340,000; AID 540253; active means falling FRET ratio curve, often poorly fitted, with flat reads before Ran was added; inconclusive means other falling curves, or compound fluorescence or quenching; inactive means flat or rising ratio curve;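 also: potency is read from the fitted curve at half-maximal effect; % of control where 0% means no effect; nearly all actives have a fitted effect of over 45% in size; -100% = wells without RanGTP and RCC1; the record marks most hits as doubtful in a second field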
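Compounds sat 5 min at room temperature with 0.1 uM Rango biosensor plus 0.25 uM importin beta, then FRET pre-read. RanGTP-RCC1 (0.6 uM Ran, 2mM GTP, 0.2 uM RCC1) added for 45 min, and the CFP/YFP post-read measured blocked complex dissociation.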
Rango-impB inh: prevents formation of the Rango-importin beta complex; Q14974; Rango CFP/YFP FRET sensor + importin beta, 45 min; Potency, µM (titrated, usually from 92.2 µM), without a hit: top-dose inhibition of complex formation; hit rate 0.031% among 340,000; active = rising FRET ratio curve, often small or poorly fitted; inconclusive = mostly compound fluorescence or quenching in the first reads; inactive = flat curves in all reads;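 also: potency is read from the fitted curve at half-maximal effect; 0% = DMSO wells and 100% = buffer wells lacking importin beta; nearly all actives have a fitted effect of over 15% in size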
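Inhibition scored from the CFP 486 nm/YFP 530 nm FRET ratio 45 min after adding 0.125 microM importin beta to 50 nM Rango biosensor preincubated 5 min with compound (room temperature, PBS with DTT, Tween-20, BSA). No-importin wells as positive control.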
GLA inh pH 4.5: alpha-galactosidase A (human) inhibition, pH 4.5 | P06280 | purified enzyme, 4-MU-alpha-Gal fluorescence, pH 4.5 | activity change, negative = inhibition, % at 105 µM | 230,000 tested, under 10 active | AID 1467; inconclusive = small, poorly fitted or top-dose-only inhibition, or a rising curve; inactive = flat fitted curve, though single readings scatter; no compound was filed as active;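 also: 0% = full activity with enzyme and -100% = basal without enzyme; dose as in the result columns while the protocol names 77 µM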
Target sequence (P06280 whole entry, looked up): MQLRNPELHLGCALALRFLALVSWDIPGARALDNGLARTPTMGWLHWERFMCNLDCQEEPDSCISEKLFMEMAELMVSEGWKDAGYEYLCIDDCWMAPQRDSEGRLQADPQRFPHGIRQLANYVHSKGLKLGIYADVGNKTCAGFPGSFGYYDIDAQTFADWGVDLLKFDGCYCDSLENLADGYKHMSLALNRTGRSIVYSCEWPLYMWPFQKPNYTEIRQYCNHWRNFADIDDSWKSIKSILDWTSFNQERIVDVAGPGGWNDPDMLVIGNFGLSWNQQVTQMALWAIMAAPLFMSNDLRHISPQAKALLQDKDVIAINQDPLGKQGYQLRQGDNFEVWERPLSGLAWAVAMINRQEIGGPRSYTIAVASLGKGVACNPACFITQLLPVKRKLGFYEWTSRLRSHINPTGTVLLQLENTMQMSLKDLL
The depositor's hits bear a star; ? = inconclusive; . = no result given; & = joins results of further samples. Only part of the results is shown, so the mix of outcomes need not match the whole.

miR-21 reporter,Rango dissoc inh,Rango-impB inh,GLA inh pH 4.5,compound
-3%,11%,?,3,COc1ccc(C2=C(CC(=O)O)C(=O)CC2)cc1
-11%,-1%,0.1%,-4,CC(=O)N1CCN(C2=NC(=O)/C(=C\c3cccs3)S2)CC1
-56%,?,?,6,CCOC(=O)C1=C(CSc2nc(-c3ccccc3)ccc2C#N)OC(N)=C(C#N)C1c1cccnc1 (centres undefined)
0%,-10%,-3.0%,0,Cc1cc(C)n(Cc2ccc(NC(=O)c3c([N+](=O)[O-])c(C)nn3C)cc2)n1
-11%,-23%,?,2,CSC1=N/C(=C\c2ccccc2)C(=O)N1C
-1%,19%,1.1%,-13,CCOC(=O)c1ccc(NC(=O)c2nc[nH]c2C(=O)N[C@@H](CC(C)C)C(=O)OC(C)(C)C)cc1
-15%,-4%,0.8%,-1,COCCN1Cc2cccc(C(=O)Nc3ccc(C)c(C)c3)c2C1=O
-12%,3%,-1.7%,-8,COc1ccc(NC(=O)CN2CCN(CC(=O)Nc3cc(OC)cc(OC)c3)CC2)cc1
-1%,-12%,-1.0%,1,O=C(OCC(=O)N1CCN(C(=O)c2ccco2)CC1)c1cc(-c2ccc(Cl)c(Cl)c2Cl)nc2ccccc12
-1%,11%,-2.7%,.,O=C(NCCN1CCCC1)c1ccc(Br)cc1
-9%,1%,-3.2%,-8,CCN(CCCNC(=O)c1c(C)cc(=O)oc1C)c1ccccc1
-7%,-14%,3.3%,-7,Cc1cc(N2CCCCC2C)nc(-c2ccccc2O)n1 (centres undefined)

(cont.)
miR-21 reporter,Rango dissoc inh,Rango-impB inh,GLA inh pH 4.5,compound
-16%,8%,-2.7%,4,CN1OC(COC(=O)c2ccccc2)CC1c1ccccc1 (centres undefined)
-20%,-3%,6.8%,-2,Cc1ccc(C2=NC3(CCCCC3)NC2=S)cc1
-3%,11%,-2.9%,-2,O=C(CCc1ccccc1)NNC(=O)c1ccc(NC(=O)c2ccccc2)cc1
-2%,15%,2.2%,4,CCOC(=O)c1cc(C)sc1N1C(=O)C2C3C=CC(C3)C2C1=O (centres undefined)
-2%,11%,1.9%,-4,COc1ccc(/C(O)=C/C(=O)C(=O)NNC(=O)C(O)(c2ccccc2)c2ccccc2)cc1
-4%,0%,0.9%,-26,Cc1cccc(CN2C(=O)CCSc3ccc(Cl)cc32)c1
-19%,-9%,1.0%,-3,CN(CCc1ccccn1)C(=O)Nc1cccc(Cl)c1
.,2%,2.6%,.,COc1ccc(CNC(=O)N2CCN(C(=O)c3ccccc3)CC2)cc1
-6%,20%,0.3%,1,Cc1cc(C)cc(NC(=O)COC(=O)CCCNC(=O)c2ccc(Cl)cc2)c1
.,-9%,-0.4%,.,COCCNC(=O)CN1CCN(S(=O)(=O)c2ccc3c(c2)CCCC3)CC1
7%,-7%,-2.0%,.,COc1ccc(NC(=O)C2CC(=O)N(CCc3ccc(Cl)cc3)C2)cc1 (centres undefined)
-7%,5%,0.6%,.,CCN(c1cccc(C)c1)S(=O)(=O)c1csc(C(N)=O)c1

The listing continues.
miR-21 reporter,Rango dissoc inh,Rango-impB inh,GLA inh pH 4.5,compound
-37%,-7%,-0.4%,3,O=C(Cc1ccccc1)NCCSC1CCCCC1
13%,?,0.7%,-6,CCCCCCSc1nnc(-c2cnn(-c3ccccc3)c2-n2cccc2)n1C
-1%,-8%,0.4%,-3,COc1ccccc1NS(=O)(=O)c1ccc(O)cc1
-7%,5%,5.6%,7,Cc1ccc(-c2nn3nnnc3c3ccccc23)cc1
4%,-2%,-2.1%,-8,CN(C)c1nc(OCCNC(=O)COc2ccc(Cl)cc2Cl)nc(N(C)C)n1
-12%,4%,5.8%,-1,O=C(Nc1ccc(Oc2cccnc2)cc1)c1ccccc1Cl
-14%,-18%,?,?,CN1CCc2nc(SCC(=O)Nc3cccc(F)c3)c(C#N)c(-c3cccs3)c2C1
.,23%,-5.1%,.,O=C(NCC(=O)N1CCCC(C(F)(F)F)C1)c1ccc2ccccc2c1 (centres undefined)
-23%,11%,-4.2%,-10,O=C1N=C(N2CCCC2)S/C1=C\c1cccc(Br)c1
-5%,30%,-0.5%,5,CCCn1c(Nc2ccccc2)nc2ccccc21
-11%,9%,2.3%,2,Oc1ccc(CNCC2COc3ccccc3O2)cc1 (centres undefined)
-2%,-2%,-2.8%,-1,COCCCNC(=O)CC(C)c1ccccc1 (centres undefined)

The listing continues.
miR-21 reporter,Rango dissoc inh,Rango-impB inh,GLA inh pH 4.5,compound
5%,7%,-2.7%,.,CCCNC(=O)C1(O)c2cc(Br)ccc2NC(=O)N1c1ccc(Cl)cc1 (centres undefined)
-8%,?,?,-2,Cc1cc2nc3c(=O)n(Cc4ccccc4)c(=O)[nH]c3nc2cc1N
-7%,-4%,2.8%,7,COC(=O)c1ccc(/C=N\NC(=O)c2ccc(C)cc2Cl)cc1
-5%,16µM*,?,-3,CCc1nn(-c2ccccc2)c2c1-c1cc(OC)c(OC)cc1C1(N2)C(=O)Nc2ccccc21 (centres undefined)
0%,12%,2.3%,.,Cn1c(CNC(=O)c2ccc(Cl)cc2)nnc1SCC(=O)N1CCOCC1
0%,0%,0.7%,-9,COc1ccc(N2C(=O)C3CCCN3C2c2cccc(C)c2)cc1 (centres undefined)
-4%,0%,-3.1%,.,COc1ccc(CCNC(=O)c2cc(=O)[nH]c3ccccc23)cc1
19%,12%,3.1%,0,CCCCCC(=O)Nc1cccc(C2=NOC3(C2)C[C@H](C(N)=O)N(C(=O)CCCCC)C3)c1 (some centres undefined)
-11%,-6%,-5.1%,-6,COc1ccccc1C1C(C#N)=C(N)N(c2cccnc2)C2=C1C(=O)CC(C)(C)C2 (centres undefined)
-11%,-2%,-2.4%,3,CCOCCCNS(=O)(=O)c1cc(Br)cc2c1N(C(=O)C1CC1)CC2
-2%,0%,-0.9%,-6,O=C(NCCN1CCOCC1)Nc1ccc(F)cc1
-11%,?,?,-6,COc1ccc(C2c3ccc(O)cc3Oc3ncn4nc(-c5ccco5)nc4c32)cc1OC (centres undefined)

More records
miR-21 reporter,Rango dissoc inh,Rango-impB inh,GLA inh pH 4.5,compound
10%,-4%,-0.3%,-26,COc1ccc(CCNC(=O)COc2ccc(S(=O)(=O)NC3CCCCC3)cc2Cl)cc1OC
-6%,1%,-0.4%,.,COc1cccc2c(N/N=C/c3ccccc3)cc(C)nc12
-2%,4%,1.5%,7,CC(NC(=S)NCc1ccccc1)C12CC3CC(CC(C3)C1)C2 (centres undefined)
-2%,?,7.1%,-6,Cc1ccc(NS(=O)(=O)c2ccc(N/N=C/c3ccccc3OCC(=O)O)c([N+](=O)[O-])c2)c(C)c1
21%,3%,-2.6%,1,COc1ccc(-c2ccc(Nc3ccc(S(=O)(=O)N4CCCC4)cc3)nn2)cc1OC
-7%,3%,-0.3%,-4,CCc1ccc(NC(=O)CCS(=O)(=O)c2cccc3nsnc23)cc1
0%,-5%,3.1%,.,O=C(Cn1nc(Br)nc1Br)c1ccccc1
.,-17%,0.9%,.,CCOC(=O)C1CCCN(C(=O)c2cccc(S(=O)(=O)N(Cc3ccccc3)c3ccccc3OC)c2)C1 (centres undefined)
-8%,18%,-0.7%,11,Cc1ccc(O/C=C2\OC(=O)c3ccccc32)cc1
.,14%,-2.0%,.,Cc1cccc(-c2noc(CCC(=O)N3CCN(c4cc(C)ccc4C)CC3)n2)c1
2%,7%,0.6%,.,CC(=O)Nc1ccc(CN2CCCCCC2)cc1
-1%,2%,2.1%,-4,COc1cccc(C(=O)N2CCCC(CCC(=O)NCc3ccc(F)c(F)c3)C2)c1 (centres undefined)

(cont.)
miR-21 reporter,Rango dissoc inh,Rango-impB inh,GLA inh pH 4.5,compound
1%,10%,-1.6%,-6,COc1ccc(C2C(C(=O)Nc3cccnc3)=C(C)Nc3nc(-c4cccs4)nn32)cc1 (centres undefined)
-1%,?,-3.0%,-1,COC(=O)CN=Cc1c(C)[nH]n(-c2ccccc2)c1=O
-18%,-22%,3.8%,.,Cn1c(C(=O)N2CCN(c3ccccn3)CC2)cc2ccccc21
-2%,17%,-0.1%,-1,CC1=NN(C(=O)CSCc2ccccc2)C(O)(c2ccccc2)C1 (centres undefined)
-4%,-4%,0.3%,-8,Cc1ccc(CNC(=O)CCCNC(=O)c2ccc(Cl)cc2)n1C
4%,?,?,10,COC(=O)c1scc2c(=O)cc(C(F)(F)F)[nH]c12
-3%,13%,3.7%,3,Clc1nc(CN2CCCCC2)nc2sc3c(c12)CCCC3
.,6%,3.8%,.,O=C(O)C1=CC[C@@H](c2ccc(Cl)cc2)N(S(=O)(=O)c2ccc(Cl)cc2)C1
4%,13%,2.3%,.,Cc1cccc(C(=O)NCCNC(=O)c2cnccn2)c1
.,3%,-0.8%,.,CCOC(=O)C1C(=O)CC(C)(O)C(C(=O)OCC)C1c1ccc2c(c1)OCO2 (centres undefined)
1%,8%,16µM*,.,NS(=O)(=O)c1cccc(NC(=O)CCCNC(=O)c2ccc(Cl)cc2)c1
7%,0%,-1.6%,9,CCOC(=O)c1nc2sc3c(c2c(=O)n1C(C)C(=O)OCC)CCCC3 (centres undefined)

Rewritten as a markdown table: 5 of the compounds above
| SMILES | miR-21 reporter | Rango dissoc inh | Rango-impB inh | GLA inh pH 4.5 |
| --- | --- | --- | --- | --- |
| Cc1ccc(-c2nn3nnnc3c3ccccc23)cc1 | -7% | 5% | 5.6% | 7 |
| CN(C)c1nc(OCCNC(=O)COc2ccc(Cl)cc2Cl)nc(N(C)C)n1 | 4% | -2% | -2.1% | -8 |
| O=C(Nc1ccc(Oc2cccnc2)cc1)c1ccccc1Cl | -12% | 4% | 5.8% | -1 |
| CN1CCc2nc(SCC(=O)Nc3cccc(F)c3)c(C#N)c(-c3cccs3)c2C1 | -14% | -18% | ? | ? |
| O=C(NCC(=O)N1CCCC(C(F)(F)F)C1)c1ccc2ccccc2c1 (centres undefined) | . | 23% | -5.1% | . |

Additional structures follow:
miR-21 reporter,Rango dissoc inh,Rango-impB inh,GLA inh pH 4.5,compound
-5%,2%,-1.1%,-1,Cc1cc(C)c(S(=O)(=O)Cc2ccc(Cl)cc2)c(=O)[nH]1
1%,13%,-1.1%,-11,Cc1ccc(C)c(N2CCN(Cc3nnnn3C3CCCCC3)CC2)c1
.,30%,-0.7%,.,O=C(NNC(=O)c1ccccc1Cl)c1ccc(-n2cncn2)c([N+](=O)[O-])c1
0%,-4%,-5.1%,1,CCc1ccc(NC(=O)c2cc(-c3ccc(OC)cc3)on2)cc1
8%,1%,-2.5%,.,COc1cc2ccccc2cc1C(=O)N1CCN(c2ccccn2)CC1
22%,-5%,1.8%,-3,O=C(NCCSCc1ccccc1)c1ccc(Cl)c(S(=O)(=O)N2CCOCC2)c1
21%,3%,6.8%,-8,NS(=O)(=O)c1ccc(N/N=C2/CCCCC2C2CCCCC2)c([N+](=O)[O-])c1 (centres undefined)
-1%,?,1.2%,.,CC1CCN(S(=O)(=O)c2ccc3c(c2)N(CC(=O)NCCCN2C(C)CCCC2C)C(=O)CO3)CC1 (centres undefined)
.,23%,9.8%,4,C[C@@H]1C=C[C@](Cc2ccccc2)(C(=O)O)N1C(=O)c1ccccc1
8%,-5%,-0.4%,6,O=C(COC(=O)c1n[nH]c2ccccc12)Nc1ccc(S(=O)(=O)N2CCCC2)cc1
-14%,-16%,0.6%,6,COC(=O)c1cccnc1-n1c(=O)c2cccnc2n(Cc2ccc([N+](=O)[O-])cc2)c1=O
.,1%,?,.,COc1ccc(C(=O)OCc2c(-c3cccc(OC)c3)ncc3ccccc23)cc1
1%&9%,20%,-4.0%,.,COc1cc(CNc2ccc3[nH]c(=O)[nH]c3c2)cc(Br)c1OCc1ccccc1F

Given tab-delimited: entries from further up
Structure	miR-21 reporter	Rango dissoc inh	Rango-impB inh	GLA inh pH 4.5
CCOC(=O)c1nc2sc3c(c2c(=O)n1C(C)C(=O)OCC)CCCC3 (centres undefined)	7%	0%	-1.6%	9
Cc1cccc(CN2C(=O)CCSc3ccc(Cl)cc32)c1	-4%	0%	0.9%	-26
CN(C)c1nc(OCCNC(=O)COc2ccc(Cl)cc2Cl)nc(N(C)C)n1	4%	-2%	-2.1%	-8
Cc1cc2nc3c(=O)n(Cc4ccccc4)c(=O)[nH]c3nc2cc1N	-8%	?	?	-2
